# ClpP mod – qHTS Assay for Activators of ClpP | purified B. subtilis ClpP, FRET peptide cleavage, 20 min | AID 651965, 2013 | ATP-dependent Clp protease proteolytic subunit (Bacillus subtilis (strain 168)), P80244 | Potency, µM (highest dose often 57.5 µM), for the others: at the highest dose activity change, negative = active | 1.9% of 340,000 active; active = well fitted falling curve with a large enough effect; inconclusive = small, poorly fitted or top-dose-only effect; inactive = no such curve, though single readings can be large or run the other way; note: potency is the fitted concentration of half-maximal effect; the source files actives as falling curves though it sought activators and does not explain the sign; nearly all actives have a fitted effect of over 65% in size; many hits overshoot -100%
# Target sequence (P80244 whole entry, looked up): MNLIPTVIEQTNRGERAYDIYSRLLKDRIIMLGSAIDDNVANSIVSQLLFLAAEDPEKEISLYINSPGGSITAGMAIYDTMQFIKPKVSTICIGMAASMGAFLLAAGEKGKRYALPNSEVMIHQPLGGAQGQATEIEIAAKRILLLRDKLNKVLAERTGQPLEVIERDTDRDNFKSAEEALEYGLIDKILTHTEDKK
#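 ClpP 10 microg/mL final, pH 8 Tris/KCl buffer with BSA, glycerol, Tween-20; compound pinned in; FRET-FV substrate; RT 20 min; Ex320/Em430; ΔFRET vs ADEP 5.8 microM, DMSO, no enzyme.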
# Sfp PPTase inh – blocks B. subtilis Sfp PPTase activity | Biochemical Sfp PPTase activity, qHTS | Potency, µM, for the others: max response, negative = inhibition, actives largely listed as inhibitors | 3.5% of 310,000 active | AID 1490 | Q9F4F7; active = well fitted inhibition curve with a large enough effect; inconclusive = small, poorly fitted or top-dose-only effect, or another doubt; inactive = no such curve, though single readings can be large or run the other way;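 note: the enzyme is Sfp with the accession as filed and its product quenches rhodamine fluorescence; potency is the fitted concentration of half-maximal effect; 0% = enzyme reaction without inhibitor and -100% = no enzyme wells; top concentration of the series not given in the record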
#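 With Hepes-Na pH 7.6 buffer containing 10 mM MgCl2, Sfp (15 nM) modified BHQ-2-YbbR (12.5 uM) using rhodamine-CoA (5 uM). Two reads 30 minutes apart at 525/598 nm yielded each well's rate.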
# TRPML1 agonist – human mucolipin-1 channel agonism; Q9GZU1; TRPML1-expressing cells, Ca2+ dye fluorescence, FDSS; host cell line not named in the record; reference of the full effect not given here; activation, % (test concentration not listed); 0.12% of 410,000 active; AID 624414; in the data active = activation above about 50%; inconclusive = about 30% to 50%; inactive = below about 30%; note: 0% is about no effect; the text of the record puts the active cut at 80%
#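 Kinetic FDSS Ca2+ read in Tet-induced TRPML1-DL cells (ABD Ca8 dye plus quencher, 45-90 min RT loading): baseline, then compound, then 110 s agonist window; EC80 agonist 54-4 at 4uM final added afterwards for a 110 s antagonist window.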
# Menin-MLL FL inh – menin-MLL binding inhibition, fluorescein peptide | Fluorescence polarization, fluorescein-MLL peptide displacement from menin | FP activity change, % at 61.4 µM | 290,000 tested, under 10 active | AID 1766; inconclusive = falling polarisation curve, or a change in total fluorescence; inactive = total fluorescence flat and polarisation flat or rising; no compound was filed as active; the % refers to the polarisation; negative = inhibition;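 note: % of control where 0% means no effect; inhibitors lower the polarisation; unlabelled MLL peptide was the positive control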
# TRPML1 inh – inhibitors of human TRPML1 channel | Q9GZU1 | TRPML1-inducible cells, Ca2+ dye fluorescence, FDSS; active compounds read low; inhibition of EC80 agonist-evoked calcium signal | activity change, negative = inhibition, % (no concentration beside the values) | 0.02% of 390,000 active | AID 624415; in the data active means activity change below about -50%; inconclusive means about -30% to -50%; inactive means above about -30%;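 note: stimulus is agonist 54-4 at its EC80 concentration; % is set by controls: 0 for no effect and ±100 for the full control effect; compound concentration not given in the record; the text of the record puts the active cut at -80%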
#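 TRPML1-DL cells, Tet-induced overnight (~16 h, 37 °C) at 1,500 cells/well, were loaded with Ca8 no-wash dye plus quencher for 45-90 min at room temperature. Compounds were pinned during FDSS kinetic reading; agonist 54-4 at EC80 (4 uM final) then added.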
# TRPV1 PAM – potentiators of human vanilloid receptor 1 (TRPV1); Q8NER1; TRPV1-expressing cells, Fluo-8 calcium influx, capsaicin EC20 potentiation; host cell line not named in the record; control for the full effect not named in the record; potentiation, % at 8.33 µM; 0.02% of 320,000 active; active means potentiation above 80%; inconclusive means 30% to 80%; inactive means below 30%; note: 0% is about no effect
# Target sequence (Q8NER1 whole entry, looked up): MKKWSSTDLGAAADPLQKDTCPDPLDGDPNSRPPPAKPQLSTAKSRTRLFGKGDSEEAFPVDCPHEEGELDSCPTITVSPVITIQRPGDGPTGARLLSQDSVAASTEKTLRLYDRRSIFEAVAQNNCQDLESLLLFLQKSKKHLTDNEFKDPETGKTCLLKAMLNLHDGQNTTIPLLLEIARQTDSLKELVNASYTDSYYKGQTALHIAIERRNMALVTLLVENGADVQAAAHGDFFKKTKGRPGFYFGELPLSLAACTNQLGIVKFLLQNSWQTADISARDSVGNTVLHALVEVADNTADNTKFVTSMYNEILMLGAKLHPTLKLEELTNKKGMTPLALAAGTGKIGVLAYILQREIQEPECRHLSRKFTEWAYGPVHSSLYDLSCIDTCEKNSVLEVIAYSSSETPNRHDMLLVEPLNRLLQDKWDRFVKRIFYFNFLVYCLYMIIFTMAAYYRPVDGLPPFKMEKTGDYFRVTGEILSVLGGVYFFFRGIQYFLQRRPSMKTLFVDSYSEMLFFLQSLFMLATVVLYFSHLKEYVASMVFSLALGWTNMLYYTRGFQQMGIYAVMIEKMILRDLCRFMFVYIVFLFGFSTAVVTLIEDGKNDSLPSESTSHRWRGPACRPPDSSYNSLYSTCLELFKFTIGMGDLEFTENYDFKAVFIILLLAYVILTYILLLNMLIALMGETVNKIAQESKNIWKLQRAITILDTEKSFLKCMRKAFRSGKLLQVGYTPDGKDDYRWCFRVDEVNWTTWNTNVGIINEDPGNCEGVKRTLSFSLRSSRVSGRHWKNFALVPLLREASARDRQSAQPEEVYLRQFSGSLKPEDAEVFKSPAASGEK
#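 Cells expressing TRPV1 were dye-loaded with Fluo-8 and read kinetically: 10 s baseline, 3 min after compound (agonist portion), then 2 min after EC20 capsaicin (allosteric enhancer portion). Calcium-bound dye fluorescence at 480/520 nm.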
# PINK1 modulator – modulators of PINK1 expression; PINK1 immunofluorescence, high-content cytometry, 24 h; Potency, µM (titrated, usually from 76.6 µM), for the others: at the top dose activation (PINK1 increase), actives largely listed as activators; 0.2% of 410,000 active; AID 624263; active = well fitted activation curve with a large enough effect; inconclusive = small, poorly fitted or top-dose-only effect; inactive = flat fitted curve, though single readings scatter; cell line not stated here;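 note: potency is the fitted concentration of half-maximal effect; % of control where 0% means no effect; nearly all actives have a fitted effect of over 65% in size; a mitochondrial uncoupler was the plate control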
#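 A stable cell line was treated with compounds at 5 concentrations for 24 hours, with CCCP as control. PINK1 levels and mitochondrial localization were measured by immunofluorescence with mitochondrial, cell and nuclear markers after fixation, read by laser-scanning cytometry.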
# The depositor's hits bear a star; ? = inconclusive; / = no result given; & = joins results of further samples; [ ] = dose if it differs, or a comment.
SMILES,ClpP mod,Sfp PPTase inh,TRPML1 agonist,Menin-MLL FL inh,TRPML1 inh,TRPV1 PAM,PINK1 modulator
CC(C)=CCCC(C)CN1CCC(N2CCC(C(=O)NC(C)C)CC2)CC1 (configuration not stated),-3.0%,14%,0.1,-1.3,-3,4,2.3%
N#Cc1c(C(F)(F)F)cc(-c2ccc(Cl)cc2)[nH]c1=O,5.2%,8%,1.4,-2.5,-6,8,?
CN1C(=O)NC(c2cccc([N+](=O)[O-])c2)C2=C1CC(C)(C)CC2=O (configuration not stated),0.9%,7%,/,0.4,/,26,0.2%
C[C@@H]1CN([C@@H](C)CO)C(=O)c2cccc(NC(=O)Nc3ccc(F)cc3)c2O[C@@H]1CN(C)Cc1ccc(Oc2ccccc2)cc1,-21%,/,-0.5,/,1,/,7.9%
O=C(CCCOc1ccc(Cl)cc1Cl)NCc1ccncc1,/,23%,-0.2,-0.4,-9,3,-0.3%
CCOC(=O)c1cc(S(=O)(=O)NCCc2ccc(OC)c(OC)c2)cn1C,/,10%,-0.3,/,-7,1,0.6%
O=C1NC(c2ccco2)Nc2sc3c(c21)CCN(Cc1ccccc1)C3 (configuration not stated),4.3%,22%,0.9,0.0,-6,-20,5.0%
Cc1c(Cl)cccc1NC(=O)CCN1CCN(C)CC1,0.3%,11%,0.4,1.3,-10,9,-0.1%
Clc1ccccc1C1SCC2Nc3ccccc3CN21 (configuration not stated),-2.4%,-2%,-0.7,2.4,-10,28,3.1%
COCCCN(C(=S)NC(=O)c1ccc(C(C)(C)C)cc1)c1c(N)n(Cc2ccccc2)c(=O)[nH]c1=O,-3.8%,2%,2.8,-2.0,-10,10,1.4%
Cc1cccc(N(C(=O)Cn2nnc3ccccc32)C(C(=O)NCc2ccco2)c2ccncc2)c1C (configuration not stated),-7.6%,-3%,-0.3,0.7,4,-17,-1.8%
COc1ccc(C)cc1NC(=O)CSc1nc(=O)n(Cc2cccnc2)c2c1CCC2,-3.4%,/,-0.2,/,-6,/,1.1%
CC(C)c1noc(-c2ccccc2OCC(=O)Nc2ccc([N+](=O)[O-])cc2)n1,-0.9%,/,-0.8,/,10,/,1.1%
O=c1cc(CSc2nc(NCc3ccc(Cl)cc3)c3ccccc3n2)nc2ccc(Cl)cn12,/,/,-0.3,/,-18,/,8.6%
Cc1c(NC(=O)COC(=O)Cc2ccc(Cl)cc2)c(=O)n(-c2ccccc2)n1C,-4.4%,6%,-0.5,0.2,-25,2,0.0%
CCc1cc(C(=O)O)c(NC(=O)C(c2ccccc2)c2ccccc2)s1,-1.8%,16%,-1.0,-1.8,6,?,0.9%
O=C(O)CCC(=O)OC1CC2CCC1C2 (configuration not stated),0.7%,16%,-0.8,-3.2,-6,-8,-2.9%
Cc1ccc(NC(=O)c2ccccn2)cc1S(=O)(=O)N1CCOCC1,-0.1%,-3%,0.2,0.9,-3,-24,0.2%
Nc1ccc(Nc2ccncc2[N+](=O)[O-])cc1,-1.6%,-5%,-0.5,2.4,-3,12,1.5%[38.3 µM]
CCOC(=O)C1CCN(C(=O)C2CCN(C(=O)c3ccc([N+](=O)[O-])cc3)CC2)CC1,-0.8%,16%,-0.1,-0.2,-15,7,0.3%
COC(=O)Cc1c(O)ccn(CCc2ccc(OC)c(OC)c2)c1=O,-0.6%,-10%,-0.7,-4.5,-12,6,1.0%
COc1ccc(CC(CC(=O)O)C(=O)Nc2ccc(OC)cc2)cc1 (configuration not stated),0.8%,10%,-0.3,-2.3,15,5,0.3%
CC1CCCCN1S(=O)(=O)c1ccc(C(=O)Nc2ccccc2-c2nc3ccccc3s2)cc1 (configuration not stated),-2.5%,4%,-0.3,8.4,39,-6,1.1%
Cc1noc(C)c1CSCC(=O)N1CCN(c2ccc([N+](=O)[O-])cc2)CC1,0.4%,6%,0.0,2.6,-4,-12,-1.0%
CCc1ccc(NC(=O)CN2C(=O)CSC2=O)cc1,-1.0%,18%,-0.6,1.2,48,-4,3.5%
# The list goes on:
SMILES,ClpP mod,Sfp PPTase inh,TRPML1 agonist,Menin-MLL FL inh,TRPML1 inh,TRPV1 PAM,PINK1 modulator
CC(C)(C)OC(=O)C(C)(C)Sc1nnc(N)s1,1.1%,4%,0.5,1.4,9,3,5.5%
CCOC(=O)c1c(C)[n+]([O-])c2ccc3c(non3O)c12,-0.1%,17%,1.9,0.1,-24,-8,0.4%
CN(CC(=O)NCc1ccc(Cl)cc1)S(=O)(=O)c1cccc2cccnc12,0.3%,8%,-0.4,-0.8,-11,1,0.8%
COCCCNC(=O)c1ccc2c(=O)n(Cc3ccc4c(c3)OCO4)c(=S)[nH]c2c1,0.0%,-8%,-0.4,4.7,-4,-1,/
N#Cc1ccc(N2Cc3ccccc3/C2=N/C(=O)Nc2ccc(Cl)cc2)cc1,-11%,-2%,2.1,2.0,2,15,9.7%
COc1cc(/C=N/NC(=O)C2CC(=O)N(c3ccc(C)cc3)C2)cc(OC)c1OC (configuration not stated),/,10%,-0.7,8.6,6,1,1.1%
COCCn1c(SCC(=O)NC2CCCCC2)nnc1-c1ccncc1,/,8%,0.5,-7.7,-1,-3,0.0%
Cn1c(CNc2cccc(Cl)c2)nnc1SCC(=O)OC1CCCCC1,1.3%,12%,0.7,3.4,60,-4,6.7%
CCCC(=O)N1CCC1(C)C(=O)NS(=O)(=O)c1ccc(OC)cc1 (configuration not stated),-0.1%,/,0.0,/,/,/,-0.4%
COc1ccc(NC(=O)c2cc3n(n2)C(C(F)(F)F)CC(c2ccc4c(c2)OCO4)N3)cc1OC (configuration not stated),-1.1%,8%,0.8,-3.6,4,-26,15%[38.3 µM]
Nc1nc(-c2ccc(F)cc2)cc(C(F)(F)F)n1,?,18%,1.4,-5.9,25,2,4.1%
Cc1ccc(C(=O)Nc2cccc(C(=O)O)c2)cc1S(=O)(=O)N1CCCC1,-1.0%,/,1.9,/,2,/,0.7%
O=C(CNS(=O)(=O)c1cccs1)N1CCCC1,1.5%,12%,0.0,1.7,-10,11,0.4%
CCOC(=O)CNC(=O)CSc1nnc(NC(=O)c2ccccc2Cl)s1,2.4%,9%,-0.2,-3.3,2,5,-1.0%
COc1ccccc1CNc1nc2nc(C)c(C)c(=O)n2[nH]1,-4.5%,20%,-0.2,0.4,-1,-18,0.6%
COc1cc(C(O)c2nc(-c3cccc4cccnc34)cs2)ccc1F (configuration not stated),-28%,/,-0.8,/,/,/,2.3%
COc1cccc(C(N)=O)c1OC(=O)Cc1ccccc1F,/,-1%,1.3,-1.5,-18,-13,3.3%
CN(CC(=O)O)c1ccc(C(F)(F)F)cc1[N+](=O)[O-],/,31%[activator],-0.4,-1.5,1,4,-0.4%
Cc1ccn(CC(=O)NC2CCCN(Cc3ccc(CC(C)C)cc3)C2)n1 (configuration not stated),2.7%,6%,-0.3,/,-11,-14,-0.1%
CCCCNC(=S)N(CCN(C)C)Cc1cc2cc3c(cc2[nH]c1=O)OCCO3,/,-2%,-0.5,0.0,-3,-11,0.3%
CN1/C(=C\C=Nc2cc(S(=O)(=O)N3CCOCC3)ccc2N2CCOCC2)C(C)(C)c2ccccc21,/,22%,1.3,6.8,37,-22,1.1%
CCCCc1c(C)c2cc(C)ccc2[nH]c1=O,-6.7%,2%,-0.8,-1.6,10,6,-4.0%
Cc1ccc(CNc2oc(-c3ccco3)nc2S(=O)(=O)c2ccccc2)cc1,?,5%,1.0,?,2,21,-1.3%
Cc1cc(C)c2cc(C#N)c(N3CCCN(C(=S)NCCCN(C)C)CC3)nc2c1,/,-8%,-0.7,-9.4,-2,15,-1.9%
COc1ccc(OCc2nc3c4c(ncn3n2)-c2ccccc2CC42CCCC2)cc1,28µM*,2%,0.1,8.9,-2,-4,9.8%
# Continuation.
SMILES,ClpP mod,Sfp PPTase inh,TRPML1 agonist,Menin-MLL FL inh,TRPML1 inh,TRPV1 PAM,PINK1 modulator
CC(=O)OC1CC2(C)C(CCC2(O)C(C)=O)C2CCC3C(Cl)C(=O)CCC3(C)C12 (configuration not stated),/,/,-0.5,/,8,/,-0.8%
c1ccc(-c2ccc(-c3nc(-c4ccccn4)no3)cc2)cc1,25µM*,40µM*,3.2,1.6,6,-3,-2.2%[38.3 µM]
Cc1ccc(NC(=O)C2CCCNC2=O)nc1 (configuration not stated),-2.8%,14%,0.1,5.5,-9,-2,4.8%
O=C(CN1C(=O)C(=O)N(Cc2ccco2)C1=O)Nc1ccc(F)c(F)c1F,-0.2%,/,1.5,/,-13,/,0.6%
Cc1cnc(C(=O)OCc2nc3ccccc3o2)cn1,-7.8%,/,0.3,/,-14,/,-1.0%
COc1cc(C(=O)OC(C)CN2CCOCC2)cc(OC)c1OC (configuration not stated),-1.3%&1.2%,10%&25%,0.4&-0.2,0.7&8.1,-15&5,13&22,-2.1%&0.8%
COc1ccc(CNC(=O)C[C@H]2C(=O)N(c3ccccc3)C[C@@H]2Cc2ccccc2)cc1,0.4%,-3%,1.8,0.9,-2,-16,0.7%
Cc1ccc(C(=O)CCS(=O)(=O)c2ccc(Br)cc2)cc1,0.9%,3%,3.2,-2.2,32,4,4.0%
CCOc1ccc(NC(=O)CN2C(=O)C(c3ccccc3)=NC23CCC(C)CC3)cc1 (configuration not stated),0.9%,/,0.2,/,5,/,2.6%
OC(COc1ccc(Cl)cc1)CN1CCCCC1 (configuration not stated),1.2%,-7%,0.9,1.9,-19,-5,0.9%[38.3 µM]
COc1ccc(C(=O)Nc2ccc(S(=O)(=O)N3CCCC3)cc2)cc1,/,21%,1.5,4.5,-7,-15,0.8%
Cc1ccc(-c2ccc(CCC(=O)O)n2C(C)C)cc1,4.8%,17%,0.3,6.1,-3,-4,-0.5%
CCN(CC)c1ccc(C(=O)N/N=C/c2ccc(OC)cc2OC)cc1,/,-10%,-0.2,-2.8,-10,1,9.9%

# Ordered by the number under TRPML1 inh (highest first): three from the list above.
SMILES	Sfp PPTase inh	Menin-MLL FL inh	TRPML1 inh	PINK1 modulator
Cc1ccc(-c2ccc(CCC(=O)O)n2C(C)C)cc1	17%	6.1	-3	-0.5%
Cc1ccc(NC(=O)C2CCCNC2=O)nc1 (configuration not stated)	14%	5.5	-9	4.8%
OC(COc1ccc(Cl)cc1)CN1CCCCC1 (configuration not stated)	-7%	1.9	-19	0.9%[38.3 µM]

# Screens from PubChem BioAssay.
